# T cruzi inh: blocks replication of Trypanosoma cruzi; T. cruzi beta-gal in NIH3T3, luminescence, 90 h; inhibition, % (test concentration not listed); 1.4% of 300,000 active; AID 1885;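 active = mean inhibition across valid replicates above about 55%, limit read from the data; inconclusive = mean below that limit but half or more replicates reach it; inactive = mean below it, under half of replicates reach it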;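 also: signal also drops with host cell toxicity which is not excluded here; 0% = plate median of DMSO wells and 100% = zero luminescence signal; higher percent means less beta-gal luminescence so fewer parasites; stock transfer was 50 nL into about 50 µL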
# MLL AF4-AF9 inh: inhibitors of human MLL-AF4/AF9 interaction | P42568 | AID 651704 | inhibition, % at 10 µM | 0.47% of 350,000 active | AlphaScreen, biotin-AF4 peptide binding to FLAG-AF9;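 active = every replicate reaching a set inhibition limit, whatever the replicate mean, cut at about 25% in these data; inconclusive = mean inhibition reaches that limit but some replicates miss it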;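 also: 0% = plate neutral control median and 100% = total signal loss; the record names both 10 and 1 µM as test concentration; the first replicate is given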
# Bfl-1 A1 inh: inhibitors of the anti-apoptotic protein A1, read as caspase activation; caspase activation, % (test concentration not listed); 0.066% of 330,000 active; MEF A1-2A-BIM cells, Caspase-Glo 3/7 luminescence, 3 h; percent of clofoctol response, vehicle zero;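 active = over half of replicate activation scores above 10%, or exactly half above 10 with the replicate mean above 10; inconclusive = replicate mean below 10 yet half the replicates above 10; inactive = over half of replicates below 10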;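 also: wells of about 30 µL received 50 nL stock; many hits fall short of the cut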
# Calb FLC: affects C. albicans growth with fluconazole; C. albicans CaCi-2 (fluconazole-resistant clinical isolate) + fluconazole, Alamar Blue growth, 48 h; growth inhibition, % (concentration not given with the values); 0.57% of 300,000 active;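 active = most replicates above 75%; inconclusive = exactly half above 75%; inactive = most below 75%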;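 also: all wells also contain fluconazole at 8 µg/ml as a sub-toxic cotreatment; 0% = median of DMSO wells and 100% = median of geldanamycin control wells; wells of about 8 µL received 7.5 nL stock; the first replicate is given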
# RanGTP-Imp inh: disruptors of Ran-importin-beta complex formation – biochemical, FRET, CFP-Ran, YFP-importin-beta, homogeneous, primary screen. cell-free CFP-Ran/YFP-importin-beta FRET ratio. inhibition, % (no concentration beside the values). AID 2216. 1.1% of 300,000 active;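 active = most replicates above 15%; inconclusive = exactly half above 15%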;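 also: 0% = DMSO wells and 100% = Ran loaded with GDP instead of GTP; wells of about 40 µL received 100 nL stock; the first replicate is given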
# Beta cell apopt: blocks beta cell apoptosis. INS-1E cytokine-induced death, ATP luminescence, 48 h; percent of positive-control rescue, neutral wells zero. protection from apoptosis, % (no concentration beside the values). 0.8% of 300,000 active;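 active = all replicates at 75% or more, or half of them and the mean; inconclusive = half reach 75% but not the mean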;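 also: 0% = cytokine-treated negative control wells and 100% = positive control rescue; higher means more ATP so stronger rescue from cytokine killing; wells of about 40 µL received 100 nL stock; the first replicate is given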
# LANA-H2A inh: blocks KSHV LANA binding to histone H2A/H2B | Q9QR71 | cell-free LANA-H2A/H2B peptide, fluorescence polarization | inhibition, % (concentration not given with the values) | 0.6% of 320,000 active | AID 2629; in the data active = inhibition mostly above about 10%, no sharp cut-off; inactive = mostly below about 6.7%;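 also: stock transfer was 7.5 nL into about 10 µL; 0% = median of vehicle wells and 100% = median of positive control wells; one replicate is shown; the record names a cut of 25% in any replicate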
# Target sequence (Q9QR71 whole entry, looked up): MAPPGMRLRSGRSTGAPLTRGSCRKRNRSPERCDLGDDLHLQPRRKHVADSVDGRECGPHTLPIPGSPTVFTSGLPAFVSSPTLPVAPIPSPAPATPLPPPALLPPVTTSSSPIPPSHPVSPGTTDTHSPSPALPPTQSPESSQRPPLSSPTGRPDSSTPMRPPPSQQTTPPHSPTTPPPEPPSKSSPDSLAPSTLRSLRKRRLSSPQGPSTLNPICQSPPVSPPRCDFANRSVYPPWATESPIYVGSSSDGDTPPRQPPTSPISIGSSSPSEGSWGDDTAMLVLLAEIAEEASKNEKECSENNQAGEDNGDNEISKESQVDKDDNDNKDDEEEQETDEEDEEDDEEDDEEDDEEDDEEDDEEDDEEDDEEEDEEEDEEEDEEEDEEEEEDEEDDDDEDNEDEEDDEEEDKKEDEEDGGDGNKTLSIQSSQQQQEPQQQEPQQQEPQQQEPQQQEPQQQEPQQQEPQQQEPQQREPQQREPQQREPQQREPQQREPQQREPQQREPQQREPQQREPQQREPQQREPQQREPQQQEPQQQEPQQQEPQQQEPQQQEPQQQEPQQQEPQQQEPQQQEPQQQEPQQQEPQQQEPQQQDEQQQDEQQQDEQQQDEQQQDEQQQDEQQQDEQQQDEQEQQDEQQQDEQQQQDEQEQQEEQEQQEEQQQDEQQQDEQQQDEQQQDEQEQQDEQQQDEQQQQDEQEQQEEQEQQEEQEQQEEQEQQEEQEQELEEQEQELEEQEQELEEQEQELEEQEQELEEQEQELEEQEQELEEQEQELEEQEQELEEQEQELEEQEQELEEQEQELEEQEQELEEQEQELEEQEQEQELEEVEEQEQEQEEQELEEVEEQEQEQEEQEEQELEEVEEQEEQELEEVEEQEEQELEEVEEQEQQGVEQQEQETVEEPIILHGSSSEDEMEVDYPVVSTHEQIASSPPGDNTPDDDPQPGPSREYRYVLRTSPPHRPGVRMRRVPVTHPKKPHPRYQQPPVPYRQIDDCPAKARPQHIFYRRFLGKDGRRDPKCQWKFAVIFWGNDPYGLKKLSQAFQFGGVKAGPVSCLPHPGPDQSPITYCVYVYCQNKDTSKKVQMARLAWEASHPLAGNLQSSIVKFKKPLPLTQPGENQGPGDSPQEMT
# Vif A3G: HIV-1 Vif–A3G interaction blockers – biochemical, TR-FRET, GST-Vif 1-94, biotin-A3G peptide, dose response retest, primary screen (AID 1117319); TR-FRET GST-Vif / biotin-A3G peptide binding; higher % means a stronger effect; test concentration not given here; strong numbers were not always called active; inhibition, %; hits with a dose series show IC50 in µM; 0.57% of 260,000 active;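 active = above the screen mean plus three standard deviations and confirmed in dose response; inconclusive = results disagree or hit not tested in dose response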;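 also: Vif residues 1-94 fused to GST binding biotinylated APOBEC3G peptide 110-148; 0% = full assay without inhibitor and 100% = GST in place of GST-Vif; retest series ran down from 100 µM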
# The depositor's hits bear a star; ? = inconclusive; / = no result given; + = active, no number; & = joins results of further samples.
# Values run as follows: Calb FLC	RanGTP-Imp inh	LANA-H2A inh	T cruzi inh	Bfl-1 A1 inh	Vif A3G	MLL AF4-AF9 inh	Beta cell apopt
[1] C=C(C)c1cccc(C(C)(C)NC(=O)NNC(=O)c2ccccc2O)c1
→ 3	2.1	1.6	-10	0.4	/	-1.1	-2
[2] COC(=O)c1c(NC(=O)c2ccco2)sc2c1CC(C)(C)NC2(C)C
→ -11	7.3	-7.6	4	0.4	-6%	0.1	1
[3] COc1ccc(-c2nc(NC(=O)CSc3nnc(C)s3)ns2)cc1
→ -9	?	7.9	1	-0.2	-15%	-16	-17
[4] O=C1CC(c2cccc(F)c2)C2=C(CCCC2=O)N1 (stereo not drawn)
→ -5	0.7	0.6	-11	0.6	0%	/	-6
[5] CN=C1S/C(=C\c2ccc(N3CCOCC3)cc2C)C(=O)N1C
→ -1	5.4	-3.1	3	0.9	4%	/	-5
[6] CC(Oc1ccc(-c2nnco2)cc1)C(=O)N1CCOCC1 (stereo not drawn)
→ 2	2.3	5.5	-14	1.5	0%	-0.3	/
[7] Cc1ccc(N(CC(=O)NC(C)(C)C)C(=O)CNC(=O)c2cccs2)cc1
→ 27	-6.1	-3.8	-8	-1.0	1%	-2.0	-2
[8] COc1ccc(N2CCN(CC(O)COc3ccc4c(c3)CCC4)CC2)cc1 (stereo not drawn)
→ -8	-1.9	1.7	5	0.0	0%	/	5
[9] O=C(COC(=O)C1CC(O)CN1S(=O)(=O)c1ccc(Cl)cc1)c1ccccc1 (stereo not drawn)
→ -2	-0.7	0.5	1	0.3	-6%	-0.2	/
[10] CCOC(=O)Cn1c(=N)n(CCOc2cccc(C)c2)c2ccccc21
→ /	/	-0.1	/	0.4	-4%	/	2
[11] Cc1ccc(NS(=O)(=O)c2ccc(NC(=O)C3CC3)cc2)cc1C
→ -3	-1.0	/	11	/	/	-16	/
[12] CCOc1ccc(S(=O)(=O)NNS(=O)(=O)c2ccc(C)cc2C)cc1
→ -5	-4.3	6.1	-3	0.6	-2%	-2.3	/
[13] CC(=O)N1CCN(S(=O)(=O)c2cccc(C(=O)OCC(=O)N(CCC#N)c3ccc(F)cc3)c2)CC1
→ /	/	0.0	/	-0.1	-6%	0.6	-7
[14] CCCOc1ccc(C(=O)c2nc3c(n2O)CCCCC3)cc1
→ 40	7.0	5.0	-2	0.7	23%	/	-4
[15] O=C(CN1C(=O)COc2ccc(Cl)cc21)N1CCCCC1
→ -11	3.2	-0.8	-7	1.0	6%	-0.3	-2
[16] NC(=O)c1ccc(NC(=O)c2ccc3c(c2)CCN3S(=O)(=O)c2ccccc2)cc1
→ 1	-1.4	-0.8	5	-1.1	/	-2.7	5
[17] N#C/C(=C\c1cn(CC(=O)N2CCCC2)c2ccccc12)C(=O)NCc1ccc2c(c1)OCO2
→ -35	1.4	-1.8	-9	-0.3	2%	/	-3
[18] Cc1cccc(N2CCN(CC(=O)Nc3ccccc3[N+](=O)[O-])CC2)c1C
→ 19	2.5	0.2	22	-0.9	-5%	/	-9
[19] O=C(O)c1ccc(NC(=S)NCc2ccccc2)cc1
→ 6	2.1	-0.5	3	0.0	/	1.2	-8
[20] CCN(CC(=O)NCc1ccc(F)cc1)C(=O)C1CC1C (stereo not drawn)
→ 2	0.9	-2.1	-21	0.2	/	1.7	6
[21] Cc1ccc(-c2cc(-c3ccccc3[N+](=O)[O-])[nH]n2)c(O)c1
→ 36	3.0	5.4	-9	0.0	2%	-2.0	-3
[22] COC(=O)c1sc(-c2ccc(Cl)cc2)cc1NC(=O)c1ccccc1C(=O)O
→ -6	8.6	-1.7	11	0.5	-60%	1.4	1
[23] O=c1c2c(-c3ccc(Cl)cc3)csc2ncn1/N=C/c1cccc([N+](=O)[O-])c1O
→ -38	3.6	0.6	-1	-0.3	2%	3.9	-5
[24] COc1ccc(C(=O)C2CCCN(C3Cc4ccccc4C3)C2)cc1OC (stereo not drawn)
→ -14	0.4	-0.6	51	-0.9	0%	2.3	3
[25] O=C(c1coc(=O)c2ccccc12)N1CCN(Cc2ccccc2)CC1
→ -7	4.5	1.8	-8	0.8	-8%	/	-2
[26] CCN(CC)S(=O)(=O)c1ccc(-c2nnc(SCC(=O)Nc3ccc4c(c3)OCO4)o2)cc1
→ 0	-3.8	5.7	-1	-0.8	-1%&6%	0.1	3
[27] Cc1cc(C(=O)CN2C(=O)C(=O)N(CCC3=CCCCC3)C2=O)c(C)n1C
→ /	/	2.9	/	0.1	/	-0.2	-6
[28] CSC1=NCCN1C(=O)c1c(F)cccc1Cl
→ 13	-0.6	-2.6	5	0.6	-3%	/	-13
[29] COC(=O)Nc1cc(C)n(-c2ccccc2)n1
→ 0	3.1	1.3	-8	0.7	-4%	/	-7
[30] Cc1cnc(C(=O)Nc2ccc(N3CCN(C(=O)OC(C)(C)C)CC3)cc2)cn1
→ -9	-4.5	6.9	-4	0.4	12%	/	13
[31] Cc1cccc(NC(=O)CSc2nnnn2C2CCCC2)c1
→ 0	-3.1	/	-9	/	/	0.9	/
[32] Cc1nonc1C1CCCN1Cc1cn[nH]c1-c1ccc2c(c1)OCO2 (stereo not drawn)
→ 19	1.3	-5.9	-8	-0.8	?	1.5	-4
[33] C/C(=N\NC(=O)c1ccc(O)cc1)c1ccc(NC(=O)Cc2ccccc2)cc1
→ -18	/	4.1	/	-1.8	/	0.3	-3
[34] CC(C)OCCCn1c(SC(C)C(=O)NC2CC2)nc2ccccc2c1=O (stereo not drawn)
→ -3	-1.0	-1.4	11	-0.6	5%	-0.5	-7
[35] O=C(NC(=S)N1CCCc2ccccc21)c1ccco1
→ -12	-2.3	2.4	7	-0.1	/	-1.3	-3
[36] Cc1ccccc1-n1c(SCC(=O)N2CCN(c3ccccn3)CC2)nnc1N1CCOCC1
→ /	/	-2.5	/	-0.5	/	-5.1	5
[37] Cc1oc(-c2cccc3ccccc23)nc1CN1CCN(c2ncnc3ccccc23)CC1
→ -12	-1.9	-2.8	37	-0.3	-6%	22	7
[38] Cc1ccc(CNC(=O)c2cc3c(s2)CN(Cc2ccccc2)C3)cc1
→ -20	-1.4	-0.9	16	-0.3	-7%	-0.5	-4
[39] O=C(Nc1nccs1)c1ccc(S(=O)(=O)N2CCCCC2)cc1
→ -2	-0.7	2.3	-3	-0.4	0%	1.6	/
[40] O=C(c1cn(-c2ccccc2)nc1-c1ccncc1)N1CCCCC1
→ -3	-2.3	-2.6	13	0.2	-6%	/	2
[41] O=C(COC(=O)c1ccc2c(=O)n3c(nc2c1)CCC3)NC1CCS(=O)(=O)C1 (stereo not drawn)
→ -3	-4.0	-0.3	-4	0.2	-4%	-1.1	0
[42] COc1ccc(CCNS(=O)(=O)CCNC(=O)c2ccc3c(c2)OCO3)cc1
→ -10	-4.1	-5.4	-5	1.9	77%	0.3	/
[43] O=C(c1ccccc1)c1c[nH]cc1-c1ccccc1
→ -38	-1.5	-1.6	-15	1.5	21%	/	-7
[44] Cc1ccc(S(=O)(=O)NCCc2cc3ccc(C)c(C)c3[nH]c2=O)cc1
→ -9	-1.6	-6.5	/	2.0	/	-0.1	3
[45] COc1ccc(C(=O)Nc2nc(C)c(C(=O)N(C)C)s2)cc1OC
→ -18	1.0	-1.2	-5	-1.6	-4%	/	2
[46] COc1cccc(NC(=O)C2CCCO2)c1 (stereo not drawn)
→ 0	-1.4	2.6	-14	-0.5	3%	-0.8	1
[47] O=C(CSc1nnc2ccc(-c3ccccc3)nn12)NCC1CCCO1 (stereo not drawn)
→ 2	-0.1	2.7	3	0.5	0%	?	-7
[48] COC(=O)c1cc(C(=O)CC(C)C)c[nH]1
→ -1	-2.9	0.7	-7	0.6	2%	-1.3	-1
[49] CC1Cc2c([nH]c3ccccc23)C(=O)N1 (stereo not drawn)
→ 13	1.0	-0.3	-13	-0.5	0%	0.5	-10
[50] COc1ccc(OCCSc2nnc3sc4ccccc4n23)cc1
→ -11	1.4	1.9	22	-1.5	16%	11	/
[51] CCOC(=O)Cc1[nH]nc2c1C(C1C=CCCC1)C(C#N)=C(N)O2 (stereo not drawn)
→ 8	-4.4	-2.3	-5	-0.3	12%	/	-4
[52] COc1ccc(C)cc1S(=O)(=O)N1CCN(C(=O)c2ncoc2-c2cccc(C)c2)CC1
→ -13	2.0	2.2	2	0.2	/	0.4	12
[53] CCOC(=O)Nc1nnc(-c2ccccc2OC)s1
→ -2	-0.6	1.2	9	0.3	71%	/	-7
[54] COc1cccc(NC(=O)CN(C)C(=O)c2cccnc2Nc2cccc(C(F)(F)F)c2)c1
→ /	/	-6.2	/	-2.1	-5%	/	12
[55] CNC(=O)NC(=O)CSc1nc2ccccc2n1CCOC
→ 1	-1.8	0.1	-15	0.2	3%	/	-9
[56] COc1ccccc1C(CNC(=O)c1ccc(S(=O)(=O)N2CCCCC2)cc1)N(C)C (stereo not drawn)
→ /	/	+	/	-0.3	-11%	1.1	-8
[57] COc1ccccc1CNS(=O)(=O)c1ccc(-c2cc(C)no2)cc1
→ 5	-3.0	-5.7	-9	-0.1	-1%	-3.3	22
[58] c1ccc(CNn2nnnc2-c2ccccc2)cc1
→ 11	4.3	-2.1	-7	0.5	1%	/	-2
[59] CC(C)NC(=O)C1CCN(C2CCN(C(=O)c3scc4c3CCCC4)CC2)CC1
→ 4	-0.1	5.3	9	0.8	-1%	-1.7	-2

# Arranged by SMILES length (lowest first): ten of the compounds above.
# Values run as follows: Calb FLC	RanGTP-Imp inh	LANA-H2A inh	T cruzi inh	Bfl-1 A1 inh	Vif A3G	MLL AF4-AF9 inh	Beta cell apopt
[46] COc1cccc(NC(=O)C2CCCO2)c1 (stereo not drawn)
→ 0	-1.4	2.6	-14	-0.5	3%	-0.8	1
[53] CCOC(=O)Nc1nnc(-c2ccccc2OC)s1
→ -2	-0.6	1.2	9	0.3	71%	/	-7
[43] O=C(c1ccccc1)c1c[nH]cc1-c1ccccc1
→ -38	-1.5	-1.6	-15	1.5	21%	/	-7
[47] O=C(CSc1nnc2ccc(-c3ccccc3)nn12)NCC1CCCO1 (stereo not drawn)
→ 2	-0.1	2.7	3	0.5	0%	?	-7
[45] COc1ccc(C(=O)Nc2nc(C)c(C(=O)N(C)C)s2)cc1OC
→ -18	1.0	-1.2	-5	-1.6	-4%	/	2
[51] CCOC(=O)Cc1[nH]nc2c1C(C1C=CCCC1)C(C#N)=C(N)O2 (stereo not drawn)
→ 8	-4.4	-2.3	-5	-0.3	12%	/	-4
[42] COc1ccc(CCNS(=O)(=O)CCNC(=O)c2ccc3c(c2)OCO3)cc1
→ -10	-4.1	-5.4	-5	1.9	77%	0.3	/
[44] Cc1ccc(S(=O)(=O)NCCc2cc3ccc(C)c(C)c3[nH]c2=O)cc1
→ -9	-1.6	-6.5	/	2.0	/	-0.1	3
[41] O=C(COC(=O)c1ccc2c(=O)n3c(nc2c1)CCC3)NC1CCS(=O)(=O)C1 (stereo not drawn)
→ -3	-4.0	-0.3	-4	0.2	-4%	-1.1	0
[54] COc1cccc(NC(=O)CN(C)C(=O)c2cccnc2Nc2cccc(C(F)(F)F)c2)c1
→ /	/	-6.2	/	-2.1	-5%	/	12

# Compound activity: PubChem BioAssay, several laboratories
